# GIV Gai3 FP – inhibitors of GIV peptide binding to Galpha-i3, primary screen, biochemical, fluorescence polarization, FITC-GIV GBA peptide, rat Galphai3; AID 1224905, 2016; Guanine nucleotide-binding protein G(i) subunit alpha-3 (Rattus norvegicus), P08753; percent of control (FP), % (test concentration not listed); 210,000 compounds, 0.42% hits; 90 min; stronger effect = lower value; scaled: aluminum fluoride 0%, vehicle 100%;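 active = replicate mean at 85% of control or lower, very high polarization wells dropped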;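 also: wells of about 15 µL received 100 nL stock; the first replicate is given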
# Target sequence (P08753 whole entry, looked up): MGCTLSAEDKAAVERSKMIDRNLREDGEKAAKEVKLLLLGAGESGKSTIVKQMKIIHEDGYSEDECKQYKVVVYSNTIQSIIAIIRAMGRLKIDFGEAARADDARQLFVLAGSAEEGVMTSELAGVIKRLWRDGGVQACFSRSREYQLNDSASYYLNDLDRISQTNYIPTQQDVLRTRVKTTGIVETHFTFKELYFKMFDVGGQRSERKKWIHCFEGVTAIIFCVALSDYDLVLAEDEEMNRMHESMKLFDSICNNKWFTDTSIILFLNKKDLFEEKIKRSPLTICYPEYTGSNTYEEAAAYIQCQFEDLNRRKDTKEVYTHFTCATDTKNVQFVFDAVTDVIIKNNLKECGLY
# HCMV UL50-53 inh – inhibitors of HCMV UL50-UL53 interaction, biochemical, HTRF; HCMV UL50-UL53 nuclear egress complex (human cytomegalovirus); normalized percent inhibition; inhibition, % (test concentration not listed); 190,000 compounds, 0.15% hits; AID 1918969, 2023;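 active = both replicates at 50% or more, plus weaker picks with an unusually low signal ratio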;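 also: stock transfer was 100 nL into about 20 µL; 0% = negative control wells and 100% = wells with untagged competitor protein; inactives centre near -12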
# Sa growth 42C – S. aureus growth inhibition at 42 and 30 °C, primary screen, LtaS inhibitor project, RN4220, two temperatures | OD600, 20 h, 42 °C; stronger effect = lower value | relative growth, % (concentration not given with the values) | 170,000 compounds, 0.53% hits;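 active = growth at 42 °C up to 50% and 20 or more points under that at 30 °C, or under 10% at both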;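 also: 300 nL library stock went into each well; scaled to the means of positive and negative controls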
# Sa growth 42C second temp – also measured in Sa growth 42C; calls as there; relative growth, %; measured here: growth at 30 °C;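 optical density after 20 h as mean of two plates; 100% = untreated growth and lower means inhibition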
# * = called active by the depositor; x = no result given; & = joins results of further samples.
SMILES,GIV Gai3 FP,HCMV UL50-53 inh,Sa growth 42C,Sa growth 42C second temp
COc1cc(OC)c(OC)cc1/C=C/c1nc2cc3ccccc3cc2c(=O)n1-c1ccc(Cl)cc1,118,x,134,98
O=C1CC(n2nnnc2-c2ccccc2)C2COC1O2 (stereo not drawn),x,-3,95,76
Cn1cc(CC(=O)NC2CCCCC2)c2ccccc21,98,-1,82,92
CCOC(=O)c1ccc(Nc2ncnc3ccc(Br)cc23)cc1,100&99,-29&6,x,x
CCCCCOc1ccc(Cn2c(=O)oc3ccc(C)cc32)cc1OC,103,-13,98,95
Cc1ccccc1NC(=O)c1cc2ccccc2cc1O,95,x,46,20
Nc1nonc1C(=O)OCC(=O)N1CCOCC1,x,-5,120,88
CCN(CC)c1cc2c(cc1F)c(=O)c(S(=O)(=O)c1ccccc1)cn2Cc1ccccc1,104,x,110,85
Cc1ccc(C)c(N2CCN(C(=O)c3[nH]c(C)c(S(=O)(=O)N4CCC(C)CC4)c3C)CC2)c1,108,-6,x,x
COc1ccc(-c2cnc3cc(-c4ccc(C(C)(C)C)cc4)nn3c2N)cc1OC,106,-14,x,x
O=C(c1ccc(CSc2nc3ccncc3n2Cc2ccc(F)cc2)cc1)N1CCN(c2ccccc2)CC1,100,-16,x,x
Cc1cc(C)n(C(=O)c2sccc2S(=O)(=O)N(C)c2ccccc2)n1,99,-27,x,x
COC(=O)C(Cc1ccc(O)cc1)N1Cc2ccccc2C1=O (stereo not drawn),97,-7,x,x
COCCn1c(Cc2ccccc2)nnc1SCC(=O)c1ccc2c(c1)CC(=O)N2,x,-2,96,82
Cc1ccc(S(=O)(=O)N2CCN(C(=O)OC(C)C)CC2)cc1,110,x,107,97
CCN(CC)CCNc1nc2c(c(=O)[nH]c(=O)n2C)n1Cc1ccccc1Cl,105,-16,92,72
CN(C)C(=O)c1ccc(NCc2cc(=O)oc3cc(O)ccc23)cc1,x,-46,99,90
CCOc1ccc(-c2cc(C(=O)Oc3ccc(OC)cc3)no2)cc1,96,-9,x,x
C#CCn1c(-c2ccccc2)nc2ccccc21,109,3,88,75
CCCCC(=O)Nc1cccc(C(=O)N/N=C/c2ccco2)c1,102,-44,101,92
COc1ccc(CNCC(=O)N2CCN(C(=O)CNCc3ccc(OC)cc3)CC2)cc1,103,-10,127,106
Cn1cc(C(=O)NCc2ccc(Cl)cc2)c(=O)c2cc(S(=O)(=O)N3CCCCCC3)ccc21,102,-12,109,93
CC(=O)N1c2ccc(S(=O)(=O)N3CCCC3C(=O)Nc3nc4ccc(C)cc4s3)cc2CC1C (stereo not drawn),109,-9,x,x
CC(C)c1ccc(Nc2ncnc3c2c(-c2ccccc2)cn3-c2ccccc2)cc1,105,x,119,86
CCC(Sc1nncn2c1cc1occc12)C(=O)Nc1ccccc1OC (stereo not drawn),121,x,91,76
O=C(CSc1ncccn1)Nc1ccc2c(c1)CCC2,x,20,82,92
CCOC(=O)c1ccc2c(c1)nc(C1CCN(S(=O)(=O)c3cccs3)CC1)n2CC,x,-14,81,83
CC(C)CN(CC(C)C)S(=O)(=O)c1cccc2cccnc12,100,x,123,71
CCOc1ccc(O)c(C(=O)C(F)(F)F)c1,x,-10,81,85
Cc1ccc(C)n1-c1ccc2c(c1)COC2=O,102,-24,110,81
CCOC(=O)c1c(NC(=O)COc2cccc(C)c2C)sc2c1CCCCC2,106,-55,92,91
C=CCn1c(SCC(=O)N2CCNC2=O)nc2scc(C3CC3)c2c1=O,x,-12,73,98
CC(Sc1nnc(-c2cccnc2)n1N)C(=O)Nc1ccc2c(c1)OCCO2 (stereo not drawn),x,-17,95,91
Cc1ccc(-n2c3c(cc(C(=O)Nc4cccc(Cl)c4)c2=O)C(=O)CC(C)(C)C3)cc1,99,x,104,95
O=C(NCCc1ccccc1)C1CCC(=O)N1C1CCCC1 (stereo not drawn),106,3,108,98
CC(=O)NCN1CCN(CNC(C)=O)CC1,99,-31,82,84
CC(C)NC(=O)CCn1c(=S)[nH]c2cc3c(cc2c1=O)OCO3,107,-2,99,100
CCCc1nc2oc3c(-c4ccccc4)c(C(=O)O)c(C)nc3c2c2c1COC(C)(C)C2,100,-8,78,100
CCc1cccc(C)c1NC(=O)c1cn2c3c(ccc(Cl)c3c1=O)OC(C)C2 (stereo not drawn),107,x,85,92
CC(=O)c1ccc(NC(=O)CCOc2ccccc2)cc1,98,2,103,102
O=C(COC(=O)c1cccnc1)NC(c1ccccc1)c1ccccc1,x,-29,123,90
CN(C1CCCC1)C1CCN(C(=O)CNC(=O)/C=C/c2ccccc2)CC1,98,x,111,87
Cc1nc(C)c(C(=O)Nc2cccc(C)c2C)s1,108,-12,x,x
CCC1CCCCN1C(=O)Cn1c(SCc2cccc(C)c2)nc2ccncc21 (stereo not drawn),99,8,x,x
Cn1c(O)c(/C=N/c2sc3c(c2C#N)CCCC3)c2ccccc21,x,-14,106,88
COc1ccc(C2=NS(=O)(=O)N(C)C(C(=O)Nc3ccn(Cc4ccccc4C)n3)=C2)cc1,102,-18,x,x
CCOC(=O)C1=C(C)N=c2s/c(=C\c3ccccc3OC(C)=O)c(=O)n2C1c1ccc(OCC)c(OCC)c1 (stereo not drawn),110,-14,x,x
CC1=CCC2C(=O)N(CCCC(=O)O)C(=O)C2C1 (stereo not drawn),109,-22,100,100
COC(=O)CN1C(=O)C(C)(C)c2cc(S(=O)(=O)Nc3ccc(C(C)C)cc3)ccc21,103,x,110,67
CCc1cccc(NC(=O)CN(C)Cc2ccccc2OC)c1,x,-16,125,84
CCOc1cc(C(C2C(=O)CC(C)(C)CC2=O)C2C(=O)CC(C)(C)CC2=O)ccc1OCc1c(C)no[n+]1[O-],x,-20,87,87
O=C1C(=Nc2ccccc2)c2ccccc2N1CN1CCN(c2ccccc2)CC1,x,-23,99,88
O=C1CN(c2ccccc2)C=NN1,x,-3,103,90
O=CNC(C(=O)Nc1cccc(Cl)c1)c1ccccc1Cl (stereo not drawn),x,-5,108,84
CCOC(=O)c1ccc(NC(=O)C2Cc3ccccc3CN2S(=O)(=O)c2ccc(Cl)cc2)cc1 (stereo not drawn),104,-2,112,102
O=C(CSc1ccccn1)N1CCc2ccccc21,103,-6,99,85
O=C(O)c1ccc(CN2CCCCC2)cc1,101,0,104,94
Cc1ccc(NC(=O)CN2C(=O)c3ccccc3Sc3ncccc32)c(C)c1,103,x,103,95
O=c1c2ccccc2[nH]c(=S)n1/N=C/c1ccccc1,98,-8,101,89
O=C(/C(=C(\O)c1ccccc1)c1ncc[nH]1)c1ccccc1,x,-32,87,86

# Next part
SMILES,GIV Gai3 FP,HCMV UL50-53 inh,Sa growth 42C,Sa growth 42C second temp
CC(C)CCNC(=O)C1CCC(=O)N1CCc1ccccc1 (stereo not drawn),103,x,125,90
C[C@H](CCC(=O)O)[C@H]1CC[C@H]2[C@@H]3C(=O)C[C@@H]4CC(=O)CC[C@]4(C)[C@H]3CC(=O)[C@]12C,x,-20,92,87
Cc1ccc(NC2=C/C(=N/S(=O)(=O)c3ccc(F)cc3)c3ccccc3C2=O)cc1C,94,x,94,66
CSc1c(C#N)c(N)nn1C,105,3,128,98
CC1(C)CC(=O)C(C=Nc2cccc(NC3=C(C#N)C(=O)CC(C)(C)C3)c2)=C(O)C1,97,x,102,84
COc1ccc(N2C(=O)/C(=C\c3ccco3)N=C2SCC(=O)/C(C#N)=C(\C)N)cc1Cl,x,-26,72,92
O=C(c1nc(-c2ccccc2)n(-c2cccc(Cl)c2)n1)N1CCN(CCO)CC1,102,19,x,x
O=C(Oc1ccc(-c2csnn2)cc1)C1CC1,97,-2,97,101
O=C(O)C1CCN(S(=O)(=O)N2CCOCC2)CC1,100,-17,92,83
Cn1c(=O)cc(SCC(=O)N2CCCC2)c2ccc(Cl)cc21,100,-22,94,83
COc1ccc(CNC(=S)NC(C)C)cc1OC,x,-7,100,99
O=C(c1cc2occc2c(Nc2ccc(F)cc2)n1)N1CCN(c2ccccc2F)CC1,107,8,x,x
CCOc1ccc(NC(=O)N2CC3CCCN3c3ccccc32)cc1 (stereo not drawn),105,x,78,72
COC(=O)c1ccc2[nH]c(C)cc(=O)c2c1,118,x,119,79
COc1cccc(Nc2nc3ccccc3c3nncn23)c1,106,1,113,94
O=c1c2cc(NC(=S)NC3CCCCCC3)ccc2nc2n1CCCCC2,105,x,103,92
C=CCC1C=CCC(CC=C)N1C(=O)CCC(=O)O (stereo not drawn),103,4,91,86
CC(OC(=O)Cn1cnc2c1c(=O)n(C)c(=O)n2C)C(N)=O (stereo not drawn),x,-4,89,90
CSc1ccc(CCNC(=O)c2sc3ncccc3c2-n2cccc2)cc1,96,x,90,79
CCCCN(C)S(=O)(=O)c1ccc(C(=O)Nc2nc3ccc4ccccc4c3s2)cc1,103,x,103,78

# Exported field by field: part of the list above.
smiles: COc1cccc(Nc2nc3ccccc3c3nncn23)c1
- GIV Gai3 FP = 106
- HCMV UL50-53 inh = 1
- Sa growth 42C = 113
- Sa growth 42C second temp = 94
smiles: O=c1c2cc(NC(=S)NC3CCCCCC3)ccc2nc2n1CCCCC2
- GIV Gai3 FP = 105
- HCMV UL50-53 inh = x
- Sa growth 42C = 103
- Sa growth 42C second temp = 92
smiles: C=CCC1C=CCC(CC=C)N1C(=O)CCC(=O)O (stereo not drawn)
- GIV Gai3 FP = 103
- HCMV UL50-53 inh = 4
- Sa growth 42C = 91
- Sa growth 42C second temp = 86
smiles: CC(OC(=O)Cn1cnc2c1c(=O)n(C)c(=O)n2C)C(N)=O (stereo not drawn)
- GIV Gai3 FP = x
- HCMV UL50-53 inh = -4
- Sa growth 42C = 89
- Sa growth 42C second temp = 90

# Going on with the list.
SMILES,GIV Gai3 FP,HCMV UL50-53 inh,Sa growth 42C,Sa growth 42C second temp
O=C(Nc1ccc(Br)cc1)c1noc2c1CCc1ccccc1-2,105,x,89,99
Cc1ccc(CNC(=O)Cn2cccc2C(=O)c2ccccc2C)cc1,102,-27,92,85
COc1ccc(C(=O)c2ccccc2)cc1CN1CCOCC1,99,x,100,80
COc1ccc(NC(=O)C2CCN(c3nc4ccccc4nc3C(F)(F)F)CC2)cc1,106&106,-14,107,99
O=C(O)CCSc1cccc2cccc(C(=O)O)c12,103,-9,110,97
C=CCN(CC=C)CC(O)Cn1c2c(c3cc(C)ccc31)CCCC2 (stereo not drawn),99,x,89,81
O=C(NCCCN1CCN(C2CCCCC2)CC1)c1c2c(nc3ccccc13)C(=O)N(C1CCCCC1)C2,106,28,x,x
Cc1ccc(CNC(=O)c2cccn3c(=O)c4ccc(Cl)cc4nc23)o1,109,-34,91,82
O=C1CCCC2=C1C(c1cccnc1)Nc1ccc3ccccc3c12 (stereo not drawn),x,-25,104,78
CCS(=O)(=O)N1Cc2ccccc2CC1C(=O)N1CCc2ccccc21 (stereo not drawn),x,-15,90,90
N#CC(Nc1ccc(I)cc1)c1ccccc1 (stereo not drawn),101,-4,105,100
CC(=O)Nc1ccc(NC(=O)CCc2nc3cccnc3n2Cc2cccs2)cc1,127,5,82,88
CCOC(=O)c1ccc(NC(=O)CC(=O)Nc2ccc3nc4n(c(=O)c3c2)CCCCC4)cc1,103,-25,104,80
OCCN1CCN(C(c2ccccc2Cl)c2sc3nc(-c4ccco4)nn3c2O)CC1 (stereo not drawn),96,x,92,91
O=C(OCC(=O)N1CCN(c2ccccc2)CC1)c1ccccn1,101,-5,98,77
O=C(O)CSCC(=O)N1CCC2(CC1)OCCO2,106,-8,96,84
COCCNC(=O)C1CCC(Cn2c(=S)[nH]c3ccccc3c2=O)CC1 (stereo not drawn),103,-6,102,97
CC1CCc2c(sc(NC(=O)c3cc4nc(-c5ccccc5)cc(C(F)(F)F)n4n3)c2C#N)C1 (stereo not drawn),x,-24,85,92
O=C(NCC1OCCc2ccccc21)c1ccc(Br)cc1 (stereo not drawn),103,x,118,90
O=C1NC(=Nc2ccccc2)S/C1=C\c1ccc(-c2ccccc2[N+](=O)[O-])o1,95,-7,x,x
O=C1c2oc3ccccc3c(=O)c2C(c2ccccc2)N1c1nccs1 (stereo not drawn),102,x,105,98
CCCCOC(=O)Nc1[nH]c(C)c(C(=O)OCC)c1C,95,-4,107,99
CCOC(=O)c1c(S(N)(=O)=O)c(C)n(-c2ccccc2)c1C,105,0,91,69
N#Cc1ccc(-c2ccc(F)cc2)n(CC(=O)N2CCC(C(N)=O)CC2)c1=O,116,-4,105,79
CCOC(=O)N1CCN(Cc2nc3cc(NC(=O)CC(C)C)ccc3n2C(C)C)CC1,100,-5,99,86
CCOC(=O)c1cnc2c(ccc3ccccc32)c1Nc1ccc(Cl)cc1,106,-20,101,89
CC(=O)N(Cc1cc2cc(C)ccc2nc1Cl)C1CCCC1,99,-6,93,79
CCCCC(CC)CN1CNC(=S)NC1 (stereo not drawn),101,-4,104,94

# In the list so far, these contain a CF3 group:
SMILES,GIV Gai3 FP,HCMV UL50-53 inh,Sa growth 42C,Sa growth 42C second temp
CCOc1ccc(O)c(C(=O)C(F)(F)F)c1,x,-10,81,85
COc1ccc(NC(=O)C2CCN(c3nc4ccccc4nc3C(F)(F)F)CC2)cc1,106&106,-14,107,99
CC1CCc2c(sc(NC(=O)c3cc4nc(-c5ccccc5)cc(C(F)(F)F)n4n3)c2C#N)C1 (stereo not drawn),x,-24,85,92

# Rows were taken by chance; overall some 0.82% were active at least once.
